From PubChem
Vaccinia mCherry – vaccinia inhibition (mCherry reporter). Potency, µM (titrated, usually from 36.5 µM), for the others: top-dose activity change, negative = inhibition, usual class: inhibitors. Vaccinia virus mCherry reporter infection, fluorescence; about a quarter of the inactives have no number. 310,000 compounds, 0.63% hits; active = well fitted inhibition curve with a large enough effect; inconclusive = small, poorly fitted or top-dose-only effect; inactive = no such curve, though single readings can be large or run the other way; tested in A549 cells; also: nearly all actives have a fitted effect of over 35% in size; inactives centre near -10
VACV Venus inh – inhibitors of vaccinia virus (Venus reporter); Vaccinia virus Venus reporter expression, fluorescence; Potency, µM (top dose mostly 36.5 µM), without a hit: at the highest dose activity change, negative = inhibition, usual class: inhibitors; 330,000 compounds, 0.46% hits; AID 720580; active means well fitted inhibition curve with a large enough effect; inconclusive means small, poorly fitted or top-dose-only effect; inactive means no such curve, though single readings can be large or run the other way; tested in A549 cells; also: nearly all actives have a fitted effect of over 30% in size; inactives centre near -10
Starred values were filed as active, the others as inactive; i = inactive; u = inconclusive; x = no result given; & = joins results of further samples; [ ] = another dose, or the depositor's remark. % is scaled to controls: 0 for no effect and ±100 for the full control effect; potency is read from the fitted curve at half-maximal effect.

structure | Vaccinia mCherry | VACV Venus inh
COc1ccc(C(=O)NC2CC(C)(C)NC(C)(C)C2)cc1S(=O)(=O)N1CCOCC1 | i | -8%
COCCCn1c(SCc2ccccc2F)nc2c(sc3ccccc32)c1=O | -4% | -6%
Cc1ccc2nc(NCCC(=O)O)nc(-c3ccccc3)c2c1 | -2% | -11%
Cc1c(Cl)cnc(NC(=O)COC(=O)CCC(=O)c2cccs2)c1Cl | -8% | -10%
O=Nc1c(-c2c(O)[nH]c3ccccc23)[nH]c2ccccc12 | -20% | -8%
Cc1ccc(N2CCN(/N=C/C=C/c3ccccc3)CC2)cc1 | -6% | -13%
CCCC(NC(=O)Cc1c(C)c2cc3c(C)c(C)oc3c(C)c2oc1=O)C(=O)N[C@@H](Cc1ccccc1)C(=O)O (stereo not given in full) | i | 3%
CCC(C)Cn1cnc2c(Sc3c([N+](=O)[O-])ncn3C)nc(N)nc21 (stereo not given) | 16µM* | u

(more compounds)
structure | Vaccinia mCherry | VACV Venus inh
CCOc1ccc(-c2cc(CCCC(=O)NCCc3cc(OC)c(OC)c(OC)c3)no2)cc1 | -12% | -11%
O=C(CCSCCC(=O)NCc1ccc(F)cc1)NCc1ccc(F)cc1 | -9% | -6%
COc1cc(NS(=O)(=O)c2ccc(NC(=O)c3ccc(Cl)cc3Cl)cc2)ncn1 | i | -13%
O=C(O)[C@@H]1CCCN1S(=O)(=O)c1cccc(S(=O)(=O)N2CCC[C@H]2C(=O)O)c1 | i | -6%
C=CCSC(=S)Nc1c(C)n(C)n(-c2ccccc2)c1=O | i | 0%
COc1cc(C(=O)N2C(=O)c3cccc(N)c3C2=O)cc(OC)c1OC | -2% | -6%
C[n+]1ccc2[nH]c3ccccc3c2c1 | 31%[activator] | 10%
CN1N=C(c2ccc(Cl)cc2)CC(c2ccc(Cl)cc2)C1=O (stereo not given) | i | -12%

Remaining list, next part.
structure | Vaccinia mCherry | VACV Venus inh
CCOC(=O)c1c(C)[nH]c(C=C2C(=O)CCCC2=O)c1O | -7% | 1%
COc1ccccc1C(=O)NCCC(=O)NCC(c1ccccc1)N(C)C (stereo not given) | i | 4%
CC(C)[C@@H](C(=O)N1CCCC1)N1C(=O)N2CCc3c([nH]c4ccccc34)[C@@]2(C)C1=O | 7% | -2%
CC1(C)Cc2c(c(=S)nc(-c3ccccc3)n2CCO)CO1 | x | -9%
CC(CNC(=O)CN1C(=O)COc2ccc(S(=O)(=O)N3CCCCCC3)cc21)c1ccccc1 (stereo not given) | -11% | -10%
COc1ccc2cc(-c3ccn[nH]3)ccc2c1 | -21% | -23%
O=S(=O)(NCc1ccco1)c1ccc(S(=O)(=O)N2CCCC2)cc1 | -8% | 0%
N/C(=N\OC(=O)C1CCCCC1)c1cccc([N+](=O)[O-])c1 | i | -9%

(more compounds)
structure | Vaccinia mCherry | VACV Venus inh
COc1ccccc1C(=O)Oc1c(Sc2ccccc2)c(C)nn1C(C)(C)C | u | u
O=C(Cc1ccsc1)OCC(=O)c1ccccc1 | -5% | -19%
CCOC(=O)CNC(=S)N(Cc1ccccc1)Cc1ccccc1F | -16% | -5%
CCOc1ccccc1C1CC(=O)NC2=C1C(=O)CCC2 (stereo not given) | x | -33%
CC(C)C(=O)c1cn(CC(=O)O)c2ccccc12 | -19% | -6%
CC(C)Cc1ccc(C(=O)Nc2ccc(Cc3ccncc3)cc2)o1 | u | -10%
Cn1c(N)c(C(=O)COC(=O)c2ccccn2)c(=O)n(C)c1=O | -5% | 5%
CC1(C)CC(=O)c2sc(NC(=O)C3CC3)nc2C1 | 0% | -21%

(cont.)
structure | Vaccinia mCherry | VACV Venus inh
COC(=O)[C@@]1(C)[C@H]2C(=O)N(C)C(=O)[C@H]2[C@H]2CN=C(SCC(=O)c3ccccc3)N21 | i | -29%
Cc1cc2c(c(-c3nc4ccccc4s3)c1)OC(CNC(=O)c1occc1C)C2 (stereo not given) | -9% | 7%
S=c1[nH]nc(-c2cccnc2)n1/N=C/c1ccccc1 | -16% | -4%
CC(Sc1ncnc2sccc12)C(=O)Nc1ccc(S(=O)(=O)N2CCOCC2)cc1 (stereo not given) | 16µM* | u
Cc1cccc(OCCOCCN2CCOCC2)c1C | -10% | -8%
CC(=O)c1cccc(NC(=O)C2=CC(c3cccs3)=NS(=O)(=O)N2C)c1 | -12% | -23%
C=CCC[C@@H](Cc1ccc(F)cc1)C(=O)OC[C@H](Cc1c[nH]c2ccccc12)NC(=O)[C@@H](CC=C)CC(=O)NCCO | u | u
C#CCOCCOCCOCCNc1nc(N2CCN(C(=O)Cn3cc(CCCCN)nn3)CC2)nc(N2CCN(C(=O)[C@H](C)n3cc(CCC(=O)O)nn3)CC2)n1 | -12% | -3%

Further results follow.
structure | Vaccinia mCherry | VACV Venus inh
O=C(N/N=C\c1cccc(F)c1)c1ccc(Cn2cc(Br)c([N+](=O)[O-])n2)o1 | -16% | -23%
O=C(CSc1nnc(-c2ccc(Cl)cc2)n1-c1ccc(Cl)cc1)N/N=C/c1ccccc1C(=O)O | -13% | 5%
Cc1nn(CCc2n[nH]c(=S)n2-c2ccc(F)c(Cl)c2)c(C)c1[N+](=O)[O-] | i | -13%
COC(=O)c1ccc(C)c(NC(=O)CCCN2C(=O)NC(C)(C)C2=O)c1 | -24% | -16%
C=CCC1(C(=O)NCCO)CCN(C(=O)OC(C)(C)C)CC1 | i | -1%
COc1ccc(CNC(=O)c2ccc3c(c2)N=C(C)c2c(C)ccc(C)c2S3)cc1 | -30% | -24%
O=C(Cc1ccccc1)Nc1c(C(=O)N2CCN(c3ccc(F)cc3)CC2)oc2ccccc12 | -11% | -11%
O=C(O)c1cc(-c2ccccc2)n(-c2ccc(Cl)cc2Cl)n1 | -4% | -10%

Additional results
structure | Vaccinia mCherry | VACV Venus inh
COc1cc(C)c(C(=O)Oc2cc(C)c(C(=O)O)c(O)c2)c(O)c1 | 8% | -5%
CN(C)c1ccc(C(=O)NCc2ccc3c(c2)CCN3C(=O)c2ccc(Cl)cc2)cc1 | -18% | -8%
CC(=O)N1CCC2(CC1)OC(=O)C(C)=C2C(=O)Nc1cc(C)ccc1C | -7% | -9%
CCOC(=O)N1CCC(NC(=O)CC2C(=O)NCCN2Cc2ccc(C)cc2)CC1 (stereo not given) | -13% | -9%
COc1ccccc1C(=O)N1CCN(C(=O)[C@H]2O[C@@H](n3ccc(N)nc3=O)[C@H](O)[C@@H]2O)CC1 | 17% | 2%
CCOC(=O)CSc1ccc2nnc(-c3ccncc3)n2n1 | 27% | -9%
O=C(Cc1ccccc1)NCCc1csc2nc(-c3ccc(Cl)cc3)nn12 | -14% | -20%
Clc1ccc(-c2csc3ncnc(Cl)c23)cc1 | i | -12%

Record cards, from the list above.
`COc1ccccc1C(=O)N1CCN(C(=O)[C@H]2O[C@@H](n3ccc(N)nc3=O)[C@H](O)[C@@H]2O)CC1` as listed: Vaccinia mCherry = 17%; VACV Venus inh = 2%
`O=C(Cc1ccccc1)NCCc1csc2nc(-c3ccc(Cl)cc3)nn12` as listed: Vaccinia mCherry = -14%; VACV Venus inh = -20%

Next part.
structure | Vaccinia mCherry | VACV Venus inh
Cc1ccccc1NC(=O)CSc1nnc(-c2ccccn2)o1 | -10% | -9%
FC(F)(F)c1nnc2ccc(N3CCCC3)nn12 | x | -27%
CC(=O)N1CCN(c2nc3cc4c(cc3nc2NS(=O)(=O)c2ccccc2)OCCO4)CC1 | i | -14%
Cc1ccc(O)c(C2=NOC(O)(C(F)(F)F)C2)c1 (stereo not given) | x | -5%
CCc1ccc(C(O)c2ncc(-c3ccccc3C)[nH]2)cc1 (stereo not given) | -29% | -14%
O=C(CCNC(=O)c1ccc(Br)cc1)Nc1cccc(S(=O)(=O)N2CCCCC2)c1 | -9% | -25%
CCn1cc(C(=O)NCCN(CC(C)C)CC(C)C)c(=O)c2cc(S(=O)(=O)N3CCOCC3)ccc21 | -29% | -31%
C/C(=C\C(=O)c1ccc(Cl)cc1)Nc1ccc(Br)cc1 | -29% | -18%

(listing goes on)
structure | Vaccinia mCherry | VACV Venus inh
Cc1ccc(CC(=O)Nc2nccs2)cc1C | -12% | -7%
CCOc1ccc(C(C)=O)cc1COC(=O)CNC(=O)C12CC3CC(CC(C3)C1)C2 | -9% | -16%
Cc1cc(Br)ccc1NC(=O)CCS(=O)(=O)c1cccc2nsnc12 | -2% | -7%
O=C(CSc1ncn[nH]1)NN(c1ccccc1)c1ccccc1 | -22% | -9%
Cc1cc(C(=O)Nc2ccc3[nH]ccc3c2)no1 | -10% | -13%
COc1ccc(-c2csc3ncn(-c4ccccc4OC)c(=O)c23)cc1OC | -26% | -28%
O=C(NN(c1ccccc1)c1ccccc1)c1ccccc1F | -21% | -6%
COCCNC(=S)N/N=C1\CC(C)CC(C)(C)C1 (stereo not given) | -18% | 11%

New compounds follow:
structure | Vaccinia mCherry | VACV Venus inh
Cn1nc(C(=O)NCc2ccco2)c2ccccc2c1=O | -8% | -9%
O=C(NCCc1ccc(Cl)cc1)c1ccc2c(c1)N(Cc1ccccc1)C(=O)CS2 | -9% | -10%
Cc1nonc1NC(=O)CSc1nc2ccccc2o1 | -22% | -7%
CCC(C)N(CCNC(=O)CC1Oc2ccccc2NC1=O)C1CCCCC1 (stereo not given) | i | -5%
CCc1ccccc1NC(=O)CC(=O)Nc1ccccc1CC | -2% | -19%
O=C(NCc1ccco1)C1CCCN(c2ncnc3c2nc2n3CCCCC2)C1 (stereo not given) | -14% | -12%
Cc1ccc2c(c1)c(CC(=O)Nc1ccc(C)c(F)c1)c(C(=O)O)n2C | 16%&7% | -3%&9%
CCC1CN(C(=O)NCc2ccccc2)c2cc(C)ccc2O1 (stereo not given) | -3%&-5% | -4%&-8%

An excerpt from the list above, for reference:
structure | Vaccinia mCherry | VACV Venus inh
O=C(NCc1ccco1)C1CCCN(c2ncnc3c2nc2n3CCCCC2)C1 (stereo not given) | -14% | -12%
Cc1ccc2c(c1)c(CC(=O)Nc1ccc(C)c(F)c1)c(C(=O)O)n2C | 16%&7% | -3%&9%
CCC1CN(C(=O)NCc2ccccc2)c2cc(C)ccc2O1 (stereo not given) | -3%&-5% | -4%&-8%

(further entries)
structure | Vaccinia mCherry | VACV Venus inh
C=CCSC1=NC(=O)/C(=C/c2cccs2)S1 | -17% | -10%
O=C(NN1C(=O)C2C3c4ccccc4C(c4ccccc43)C2C1=O)c1ccc(Cl)cc1 (stereo not given) | -14% | -11%
COC(=O)C1=C(c2ccc(F)cc2OCc2ccccc2)C[C@@H]2CC[C@H]1N2C(=O)N1CCC(C)CC1 | -4% | -24%
Cc1cc(C)nc(NC(=O)c2cnc3sccn3c2=O)n1 | i | -1%
COc1ccccc1OCCC(=O)O | i | 10%
O=C(Nc1c2c(nc3ccccc13)CCCC2)c1ccccc1F | i | -12%
C[C@H](NC(=O)c1[nH]cnc1C(=O)Nc1nccs1)c1ccccc1 | i | -15%
CCOC(=O)C1CCCN(S(=O)(=O)c2ccc(NC(C)=O)cc2)C1 (stereo not given) | 0% | -14%

The listing continues.
structure | Vaccinia mCherry | VACV Venus inh
CCc1ccc(NC(=O)CCNS(=O)(=O)c2cccs2)cc1 | 3% | -7%
CCOC(=O)/C(C#N)=C/c1ccc(OCC(=O)Nc2ccc(C)c(C)c2)c(OC)c1 | i | -10%
COC(=O)c1ccccc1NC(=O)Cn1c(=O)n(CCC(=O)NCc2ccc3c(c2)OCO3)c(=O)c2ccccc21 | -15% | -6%
O=C(CC1SC(=O)N(Cc2ccccc2)C1=O)Nc1nccs1 (stereo not given) | -10% | -4%
CCOC(=O)CN1C(=O)C(O)(CC(=O)c2ccc3c(c2)CCCC3)c2ccccc21 (stereo not given) | i | -13%
O=C(COC(=O)CC1Sc2ccccc2NC1=O)NCc1ccccc1 (stereo not given) | i | -9%
O=C(Nc1nc2c(Cl)cccc2s1)c1ccc([N+](=O)[O-])o1 | -27% | -11%
O=C(Nc1nnc(S(=O)(=O)N2CCCCC2)s1)c1ccc(F)cc1 | -14% | -7%

The listing continues:
structure | Vaccinia mCherry | VACV Venus inh
NC(=O)CC(NC(=O)c1cccc(Br)c1)c1ccc(NC2CCCCCCC2)c([N+](=O)[O-])c1 (stereo not given) | u | -25%
CC(NC(=O)c1cc(-c2ccncc2)nc2ccc(Cl)cc12)C1CCCO1 (stereo not given) | -11% | -10%
Cc1cccc(NS(=O)(=O)c2cccc(C(=O)NNC(=O)c3ccccc3O)c2)c1 | u | u
CNc1nc(Oc2cccc(NC(C)=O)c2)c2sccc2n1 | 8% | -26%
COc1ccc(C(=O)COC(=O)c2cccnc2SC)cc1 | -16% | -12%
CC1(C)Oc2ccc(C(=O)N/N=C/c3ccc(O)cc3)cc2NC1=O | i | 2%
CCOC(=O)c1c(C)oc2nc(C)nc(NCc3ccc(Cl)cc3)c12 | -16% | -8%
CC1CCCCC1NC(=O)COC(=O)c1c2c(nc3ccccc13)/C(=C\c1ccco1)CC2 (stereo not given) | 1% | 11%

Following part.
structure | Vaccinia mCherry | VACV Venus inh
N#Cc1cc(NC2CCCC2)c([N+](=O)[O-])cc1C#N | -7% | -20%
Cc1cc(F)ccc1NC(=O)C1CCCO1 (stereo not given) | 0% | -11%
COc1cccc(C(=O)NCC(c2ccc(N(C)C)cc2)N2CCCC2)c1OC (stereo not given) | -7% | -11%
Fc1cccc(Cc2c(-c3ccccc3)nc3c(Cl)cc(C(F)(F)F)cn23)c1 | -24% | u
COc1cc(/C=N/NC(=O)COc2ccc(-n3cnnn3)cc2)ccc1OCC(N)=O | i | 10%
C/C(=N\NC(=O)CC#N)c1ccc(Oc2ccccc2)cc1 | -8% | -27%
O=C(CN1C(=O)CCSc2ccc(S(=O)(=O)N3CCOCC3)cc21)Nc1ccccc1Cl | -3% | -8%
O=C(Nc1ccc2nn(-c3ccc(Cl)cc3)nc2c1)c1cc2ccccc2o1 | -11% | -7%

Compounds were not picked by outcome. About 0.82% of those tested had a hit in this group.
